Compound activity: PubChem, National Center for Advancing Translational Sciences (NCATS)
TRPML1 agonist – activates the human TRPML1 channel. Q9GZU1. TRPML1-expressing cells, Ca2+ dye fluorescence, FDSS; host cell line not named in the record; reference of the full effect not given here. activation, % (concentration not given with the values). hit rate 0.12% among 410,000; in the data active = activation above about 50%; inconclusive = about 30% to 50%; inactive = below about 30%; further: 0% is about no effect; the text of the record puts the active cut at 80%
Target sequence (Q9GZU1 whole entry, looked up): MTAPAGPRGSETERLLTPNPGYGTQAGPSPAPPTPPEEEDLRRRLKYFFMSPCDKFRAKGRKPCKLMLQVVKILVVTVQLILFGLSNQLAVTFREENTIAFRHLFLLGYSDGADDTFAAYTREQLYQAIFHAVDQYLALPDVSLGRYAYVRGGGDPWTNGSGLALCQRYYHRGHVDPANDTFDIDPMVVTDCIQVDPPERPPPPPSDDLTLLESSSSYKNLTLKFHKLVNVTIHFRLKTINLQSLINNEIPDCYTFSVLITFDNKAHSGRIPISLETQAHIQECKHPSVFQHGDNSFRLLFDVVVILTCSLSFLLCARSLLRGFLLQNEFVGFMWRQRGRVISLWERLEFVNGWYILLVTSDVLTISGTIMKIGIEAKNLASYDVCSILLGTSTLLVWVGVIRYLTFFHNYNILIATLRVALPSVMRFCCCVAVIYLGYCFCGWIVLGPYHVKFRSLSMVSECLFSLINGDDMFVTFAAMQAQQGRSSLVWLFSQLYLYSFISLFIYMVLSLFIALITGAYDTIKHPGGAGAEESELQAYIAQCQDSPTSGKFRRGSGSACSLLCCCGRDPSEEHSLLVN
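TRPML1-DL cells, Tet-induced overnight (~16 h, 37 degrees C), loaded 45-90 min at room temperature with Ca8 no-wash calcium dye plus quencher. FDSS fluorescence: 10 s baseline, compound pin-transfer, 110 s agonist read, then EC80 54-4 (4uM final) and 110 s antagonist read.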
PINK1 expr mod – modulators of PINK1 expression; PINK1 immunofluorescence, high-content cytometry, 24 h; hit rate 0.2% among 410,000; AID 624263; Potency, µM (doses to about 76.6 µM), for inactives: at the highest dose activation (PINK1 increase), hits mostly activators; active = well fitted activation curve with a large enough effect; inconclusive = small, poorly fitted or top-dose-only effect; inactive = flat fitted curve, though single readings scatter; cell line not stated here;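 further: potency means the concentration at half of the fitted maximal effect; % of control where 0% means no effect; nearly all actives have a fitted effect of over 65% in size; a mitochondrial uncoupler was the plate control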
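Cells are seeded, rested 12 hours, then given compound at five concentrations or DMSO for 24 hours. After fixation, blocking and antibody staining, PINK1 amount and mitochondrial localization are scored; CCCP serves as control.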
D2 agonist – agonists of human D2 dopamine receptor (beta-arrestin). DiscoveRx PathHunter D2 beta-arrestin, luminescence, 90 min; 100% = 57 uM dopamine signal. activation, % (test concentration not listed). hit rate 0.084% among 360,000. AID 624465; in the data active = activation above about 40%; inconclusive = about 15% to 40%; inactive = below about 15%; further: compound concentration not given in the record; the text of the record calls up to 30% inactive
Target sequence (P14416 whole entry, looked up): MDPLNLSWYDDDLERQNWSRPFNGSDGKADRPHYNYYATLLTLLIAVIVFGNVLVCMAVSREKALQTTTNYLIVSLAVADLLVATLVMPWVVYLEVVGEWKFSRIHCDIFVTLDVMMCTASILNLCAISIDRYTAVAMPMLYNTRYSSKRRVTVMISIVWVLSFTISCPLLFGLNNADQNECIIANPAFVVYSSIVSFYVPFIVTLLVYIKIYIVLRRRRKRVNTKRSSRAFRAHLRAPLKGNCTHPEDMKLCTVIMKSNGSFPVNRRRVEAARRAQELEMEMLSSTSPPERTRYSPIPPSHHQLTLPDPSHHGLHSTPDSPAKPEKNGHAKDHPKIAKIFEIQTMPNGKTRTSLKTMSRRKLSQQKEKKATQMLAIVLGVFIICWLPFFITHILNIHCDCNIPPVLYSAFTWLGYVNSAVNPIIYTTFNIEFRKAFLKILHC
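DiscoveRx PathHunter D2 beta-arrestin cells (2,100/well) attached overnight, then compound-stimulated 90 min at 37 C in HBSS/10 mM HEPES/0.1% Tween-20 buffer; beta-galactosidase complementation read by luminescence after 1 h at ambient temperature. Dopamine 57 uM final (EC100) as control.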
Six1-Eya2 inh – Six1/Eya2 interaction inhibition | activity change, % (concentration not given with the values) | Q15475+O00167 | AID 651725 | AlphaScreen GST-Six1/His-Eya2 binding, biochemical; active compounds read low; control for the full effect not named in the record | hit rate 0.56% among 360,000; in the data active = activity change below about -65%; inconclusive = about -30% to -65%; inactive = above about -30%; further: on the % scale 0 is the no-effect control and ±100 the full control effect
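AlphaScreen luminescence read after one hour at 37 °C in darkness. Pin-transferred compounds met GST-Six1 and His-Eya2 protein (5X stock 250 nM/500 nM) plus glutathione donor and Ni-chelate acceptor beads (5X, 50 ug/mL).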
D2 PAM – potentiates the human D2 dopamine receptor allosterically. DiscoveRx D2 beta-arrestin cells, luminescence, 90 min; 100% = 57 uM dopamine signal. potentiation, % (no concentration beside the values). P14416. hit rate 0.23% among 360,000; active = potentiation of 50% or more; inconclusive = 30% to 50%; inactive = 30% or less;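 further: compound concentration not given in the record; tested on top of an EC20 dose of dopamine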
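PathHunter D2 cells, attached overnight at 37 deg C, received compound in DMSO plus dopamine at EC20 (50 nM final) for 90 min at 37 deg C. Beta-arrestin recruitment was read as luminescence after 1 h with detection reagent at ambient temperature.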
TRPML1 blocker – blocks the human TRPML1 channel. activity change, negative = inhibition, % (no concentration beside the values). TRPML1-inducible cells, Ca2+ dye fluorescence, FDSS; active compounds read low; inhibition of EC80 agonist-evoked calcium signal. Q9GZU1. hit rate 0.02% among 390,000; in the data active means activity change below about -50%; inconclusive means about -30% to -50%; inactive means above about -30%;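 further: stimulus is agonist 54-4 at its EC80 concentration; on the % scale 0 is the no-effect control and ±100 the full control effect; compound concentration not given in the record; the text of the record puts the active cut at -80%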
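Calcium fluorescence in TRPML1-DL cells induced overnight with Tet: a 110 s read after compound pin addition, then a 110 s antagonist read after challenge with 54-4 at 4 uM final (EC80).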
Starred values were filed as active, the others as inactive; u = inconclusive; x = not tested or not shown; & = joins results of further samples; [ ] = remark or other dose. Outcome played no part in choosing rows; any-hit rate near 1%.

SMILES | TRPML1 agonist | PINK1 expr mod | D2 agonist | Six1-Eya2 inh | D2 PAM | TRPML1 blocker
CCS(=O)(=O)Nc1ccc(C2=NN(C(=S)Nc3ccccc3)C(c3ccco3)C2)cc1 (stereo not given) | -0.8 | 11% | 1.8 | -20 | -2 | -2
O=C(NCC1CCCO1)c1ccc(OC2CCN(C(=O)C3CC3)CC2)cc1 (stereo not given) | 0.2 | -0.7% | -6.1 | 19 | -4 | -14
O=C(CN1CCN(c2ccc(F)cc2)CC1)Nc1ccccc1C(=O)NCCc1ccccc1 | 3.1 | -0.8% | -1.6 | -25 | 2 | 36
COc1ccc(C(=O)N2CCN(CCc3ccccn3)CC2)cc1 | 1.5&-0.6 | -3.1%&2.9% | 1.7 | 3 | -12 | -23&0
CC(C)(C)n1nnnc1C(c1cccnc1)N1CCN(C(=O)c2ccco2)CC1 (stereo not given) | 0.4 | x | -2.9 | 0 | -28 | -3
O=S(=O)(/C=C/c1ccccc1)N1CCN(c2ccc(F)cc2)CC1 | 0.9 | 0.0% | -0.4 | -9 | -13 | 44
COC(=O)c1cccc(NC(=S)N2CCN(C)CC2)c1 | -0.3 | -0.4% | 2.0 | -6 | -5 | 4
CCN(CC)c1ccc(NC(=O)COC(=O)COc2ccccc2[N+](=O)[O-])cc1 | 0.6 | 0.2% | -3.0 | -24 | -16 | 7
CC(=O)OC1(C(C)=O)CCC2C3CC(C(F)(F)F)C4=CC(=O)CCC4(C)C3CCC21C (stereo not given) | 25 | 2.2% | 2.7 | 7 | -9 | 15
Cc1nnc(-c2ccc(Oc3ccc(Br)cc3)c([N+](=O)[O-])c2)o1 | 1.8 | 2.4% | 5.0 | 18 | u | 11
CCOc1cc(OCC)cc(C(=O)Nc2cccnc2)c1 | 0.7 | u | -2.3 | 0 | -3 | -4
COc1ccccc1CNC(=O)C(=O)NCC1CCCO1 (stereo not given) | 1.1 | -1.5% | -0.8 | 5 | 14 | -16
Cc1cc(C)nc(N2CCCC(C(=O)NCc3cccc(C(F)(F)F)c3)C2)n1 (stereo not given) | 4.4 | u | -0.9 | -1 | -6 | -5
Cc1cccc(N2CCN(C(=O)c3ccc(CS(=O)Cc4ccc(Cl)cc4)o3)CC2)c1C (stereo not given) | -1.1 | 21% | 2.9 | -7 | -6 | 2
CC(C)Oc1ccc2ccccc2c1CNC[C@H]1O[C@@H](n2cnc(C(N)=O)n2)[C@H](O)[C@@H]1O | -0.3 | -1.1% | -1.7 | 0 | x | -16
Cc1ccc(N2CC(C)Cn3c2nc2c3c(=O)[nH]c(=O)n2C)cc1 (stereo not given) | 1.0 | 0.1% | -0.1 | -10 | -13 | 36
COc1ccc(C(=O)Nc2ccc(N3CCN(C)CC3)cc2)cc1[N+](=O)[O-] | -0.3 | -1.0% | -2.8 | 2 | -7 | 1
C[C@H](O)[C@@H]1CN2CCc3c([nH]c4ccccc34)[C@@H]2C[C@@H]1N(C)Cc1cc(Cl)cc(Cl)c1 | 69* | 1.6% | -6.7 | -12 | 0 | -4
CC(Sc1nnc(-c2cc3ccccc3o2)n1-c1ccccc1)C(=O)O (stereo not given) | 0.4 | 0.3% | -2.5 | 3 | 3 | -9
COc1cc(OC)c(NC(=O)Cn2cnc3sc(C)c(S(=O)(=O)N4CCC(C)CC4)c3c2=O)cc1Cl | -0.3 | 0.4% | x | x | x | 36
O=C(COc1coc(CN2CCN(Cc3ccccc3)CC2)cc1=O)Nc1ccccc1 | 1.4 | 1.3% | -1.8 | 1 | -27 | 10
COc1ccc(SC[C@H](Cc2ccccc2)N2CC[C@@H](O)CCC2=O)cc1 | -0.3&0.0 | 0.5% | -0.7 | -3 | -6 | -16
CC1CC1C(=O)OCC(=O)Nc1ccc(S(=O)(=O)N2CCOCC2)cc1 (stereo not given) | 5.3 | 0.9% | -1.9 | -1 | -3 | 10
CC1(c2ccccc2)NC(=O)N(CC(=O)Nc2ccc(N3CCOCC3)cc2N2CCOCC2)C1=O (stereo not given) | 0.3 | -1.1% | -3.2 | -5 | -22 | -6
CCC(C)C(=O)Nc1nnc(SCC(=O)NC2CCCC2)s1 (stereo not given) | 0.3 | 1.9% | -1.2 | -3 | -7 | 48
Next section:
SMILES | TRPML1 agonist | PINK1 expr mod | D2 agonist | Six1-Eya2 inh | D2 PAM | TRPML1 blocker
CCC(=O)Nc1c2c(nn1-c1cccc(Cl)c1)CS(=O)(=O)C2 | -0.7 | 0.7% | 1.1 | -3 | -1 | 3
O=c1c(-c2ccnn2-c2ccccc2F)cnc2n1CCS2 | 0.3 | 5.4% | 4.0 | 8 | 4 | 15
CCOC(=O)c1cc2sccc2n1CC(=O)Nc1ccc2c(c1)OCCO2 | 5.7 | 0.0%[38.3 µM] | 0.4 | -1 | 2 | -9
CCOC(=O)C(NC(=O)c1ccccc1)(Nc1cc(C)on1)C(F)(F)F (stereo not given) | -0.3 | -0.6% | -3.8 | 3 | -4 | 16
O=C(CCC(=O)c1cccs1)NNC(=O)c1ccc(Cl)cc1 | 1.4 | 1.5% | 8.7 | 4 | 0 | 7
CC(=O)c1ccc(NC(=O)C2CCCC2)cc1 | 0.2 | 1.9% | 1.7 | 7 | -4 | 10
O=C(COC(=O)C1CC1)Nc1ccc(Oc2ccccc2)cc1 | 0.3 | -1.5% | -1.3 | 9 | 3 | 1
O=S(=O)(c1cccc2cccnc12)N1CCOCC1 | 1.6 | -1.6%[38.3 µM] | -1.8 | 7 | -6 | 0
O=C(NNc1nc(N2CCOCC2)nc(N2CCOCC2)n1)c1ccccc1 | 0.0 | 3.4% | 0.1 | 0 | -15 | 27
CCc1nc2ccc(C(=O)NCCCn3ccnc3)cn2c1N(CC)CCN(C)C | -0.3 | 1.8% | -4.3 | 8 | -8 | x
CCN(Cc1ccccc1)Cc1cc(OC)cc(OC)c1 | 0.6 | 28%[38.3 µM] | -2.1 | 22 | -11 | -8
O=C(O)c1ccc(CNCc2cccc(Cl)c2)cc1 | -0.4 | 0.4% | -4.1 | 2 | -12 | 1
CCCn1cnc2cc(NC(=O)c3cc(OC)c(OC)c(OC)c3)ccc21 | -0.2 | -0.8% | x | x | x | 15
COc1ccc(N/C(C)=C2/C(=O)C(=O)N(CCO)C2c2ccc(Br)cc2)cc1 (stereo not given) | 0.0 | 2.4% | -3.8 | -7 | -15 | -9
Cn1c2ccccc2c2cc(C(=O)O)ccc21 | 0.2 | x | 2.0 | -1 | 3 | 15
CC(C)c1csc(CN2CCC(N3CCC(C(=O)N4CCOCC4)CC3)CC2)n1 | 0.3 | 1.6% | -4.0 | 3 | -2 | 22
COC(=O)[C@@H](NCc1ccc(B(O)O)cc1)C(C)C | 0.6 | -0.4% | -2.6 | 6 | x | -14
Cc1ccc2c(N)c(C#N)sc2n1 | 0.2 | -1.6% | -1.6 | 5 | 2 | 17
CCOc1ccccc1NC(=O)CN1CCC(NC(=O)c2ccccc2C)CC1 | -0.7 | 3.1% | -0.5 | -2 | -12 | 21
CCOc1ccc(CCN2C(=O)C(=O)N([C@@H](CC(C)C)CN3CCC[C@H]3CN3C(=O)C(=O)NC[C@@H]3Cc3ccc(O)cc3)C[C@@H]2CC(C)C)cc1 | -0.8 | 3.0% | x | 5 | x | x
COc1cc(=O)n(C)c2c(O)cccc12 | x | 0.6% | 7.7 | -9 | 1 | x
COC(=O)C1=C(C)N(Cc2ccccc2)C(=NCc2cc(OC)c(OC)c(OC)c2)N[C@H]1c1ccccc1 | -0.4 | -0.1% | -2.7 | 3 | -12 | 11
O=C(CC1N=C2c3ccccc3N=C(SCc3ccc(Cl)cc3)N2C1=O)NCc1ccco1 (stereo not given) | 2.0 | 1.4% | -2.2 | -18 | -10 | 11
Cc1ccc(S(=O)(=O)n2cnc3cc([N+](=O)[O-])ccc32)c(C)c1C | -0.3 | 0.2% | -3.6 | 5 | -6 | 11
CC(C)(C)c1ccc(-c2nnc(SCCC#N)n2C2CCCC2)cc1 | 0.7 | 2.0% | -3.5 | -5 | -28 | 7
The list goes on:
SMILES | TRPML1 agonist | PINK1 expr mod | D2 agonist | Six1-Eya2 inh | D2 PAM | TRPML1 blocker
CCC(=O)C1=C(c2ccccc2)N(C(=O)CC)n2c(nnc2-c2ccccc2)S1 | 2.6 | 0.6% | x | x | x | 12
COc1ccc(OC)c(S(=O)(=O)NC2CC2)c1 | -0.3 | 1.5% | 1.4 | 2 | -6 | -30
CCOC(=O)Cc1csc(N/N=C\c2ccc(N(C)C)cc2)n1 | x | 5.8% | 9.1 | -25 | 5 | x
CCC(C)[C@H](N)C(=O)N[C@H]1CCC2C3CC=C4C[C@@H](O)CC[C@]4(C)C3CC[C@@]21C (stereo not given in full) | 1.5 | -1.6% | -2.0 | 0 | -11 | 5
CCOC(=O)C1=C(CCc2ccccc2)NC(=O)NC1c1ccc(C#N)cc1 (stereo not given) | -0.3 | 1.3% | -2.5 | -4 | -12 | 1
CCN(CC)CCOC(=O)c1ccc(N/C=C(/C#N)c2nc(-c3ccc(OC)c(OC)c3)cs2)cc1 | -1.1 | 2.4% | -1.4 | -6 | -2 | -12
O=C1OCCC1Sc1nnc(-c2ccc3c(c2)OCO3)n1-c1ccccc1 (stereo not given) | -0.2 | 0.3% | -5.1 | 3 | -15 | 4
N=C1/C(=C/c2ccco2)C(=O)N=C2SC(CC(=O)N3CCCC3)=NN12 | 0.2 | -1.1% | -4.5 | -4 | -10 | -6
Cc1n[nH]c(C)c1S(=O)(=O)N(C)Cc1ccco1 | -0.5 | 0.7% | -0.4 | -1 | 3 | -8
CCC(C)NC(=O)CSc1nnc(-c2ccc(C)cc2)c(-c2ccc(C)cc2)n1 (stereo not given) | 2.3 | 1.0% | x | x | x | -1
COc1ccc(OC)c(/C(O)=C/C(=O)C(=O)Nc2cc(C)ccc2OC)c1 | 1.8 | 1.4% | 0.4 | -5 | 9 | -19
